Beta2AR agonist: agonists of human beta-2 adrenergic receptor inducing internalization | P07550 | AID 504454 | Am2.2-beta2AR cells, FAP receptor internalization, flow cytometry; reference of the scale not given here | hit rate 0.43% among 340,000 | response, % (concentration not given with the values);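 active = response above a set limit, near 3 SD of response in nonfluorescent compounds, cut at about 42% in these data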;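 note: stock transfer was 100 nL into about 11 µL; a reference agonist was the positive control; negative values mostly stem from fluorescent compounds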
Target sequence (P07550 whole entry, looked up): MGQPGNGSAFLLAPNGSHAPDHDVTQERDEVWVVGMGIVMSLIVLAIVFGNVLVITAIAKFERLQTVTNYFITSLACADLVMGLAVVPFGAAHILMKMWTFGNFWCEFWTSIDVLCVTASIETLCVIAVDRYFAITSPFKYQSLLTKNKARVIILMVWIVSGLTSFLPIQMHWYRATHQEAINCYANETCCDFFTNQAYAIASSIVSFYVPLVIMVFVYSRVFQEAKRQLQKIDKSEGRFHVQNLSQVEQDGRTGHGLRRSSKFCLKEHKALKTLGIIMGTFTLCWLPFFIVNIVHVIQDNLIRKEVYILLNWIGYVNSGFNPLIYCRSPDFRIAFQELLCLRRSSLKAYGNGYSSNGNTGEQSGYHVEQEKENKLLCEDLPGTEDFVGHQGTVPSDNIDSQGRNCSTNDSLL
LANA-H2B inh: blocks KSHV LANA binding to histone H2A/H2B; Q9QR71; hit rate 0.6% among 320,000; inhibition, % (concentration not given with the values); cell-free LANA-H2A/H2B peptide, fluorescence polarization; in the data active = inhibition mostly above about 10%, no sharp cut-off; inactive = mostly below about 6.7%;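 note: stock transfer was 7.5 nL into about 10 µL; 0% = median of vehicle wells and 100% = median of positive control wells; one replicate is shown; the record names a cut of 25% in any replicate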
HNF4A DNA FP: change in binding of human HNF4 alpha to DNA; hit rate 0.3% among 360,000; AID 1224865; HNF4a-FITC DNA binding, fluorescence polarization, 1 h; activity change, % at 10 µM; in the data active = activity change above about 30%, passing the limit was not always enough;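 note: controls were the assay level and a saturating level of protein; the project sought stronger binding though the title names inhibitors; some compounds called inactive have numbers as strong as hits; positive values seem to mean higher polarization but the record does not say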
Target sequence (P41235 whole entry, looked up): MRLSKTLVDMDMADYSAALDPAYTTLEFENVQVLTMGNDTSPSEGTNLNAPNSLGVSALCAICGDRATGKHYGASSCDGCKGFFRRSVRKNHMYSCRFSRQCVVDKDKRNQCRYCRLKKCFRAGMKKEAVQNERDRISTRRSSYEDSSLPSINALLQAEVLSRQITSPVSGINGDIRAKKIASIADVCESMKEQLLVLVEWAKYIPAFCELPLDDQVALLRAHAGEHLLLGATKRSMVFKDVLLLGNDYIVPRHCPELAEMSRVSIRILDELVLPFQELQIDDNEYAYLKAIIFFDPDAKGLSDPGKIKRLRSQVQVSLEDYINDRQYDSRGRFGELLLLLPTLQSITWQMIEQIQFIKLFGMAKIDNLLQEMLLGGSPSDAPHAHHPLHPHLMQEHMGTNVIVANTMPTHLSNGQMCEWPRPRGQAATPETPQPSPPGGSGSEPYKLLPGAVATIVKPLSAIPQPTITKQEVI
Vif TR-FRET: HIV-1 Vif–A3G interaction blockers – biochemical, TR-FRET, GST-Vif 1-94, biotin-A3G peptide, dose response retest, primary screen (AID 1117319). TR-FRET GST-Vif / biotin-A3G peptide binding; higher % means a stronger effect; test concentration not given here; strong numbers were not always called active. one-dose inhibition, %; IC50 in µM for titrated hits. hit rate 0.57% among 260,000;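 active = above the screen mean plus three standard deviations and confirmed in dose response; inconclusive = results disagree or hit not tested in dose response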;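 note: Vif residues 1-94 fused to GST binding biotinylated APOBEC3G peptide 110-148; 0% = full assay without inhibitor and 100% = GST in place of GST-Vif; retest series ran down from 100 µM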
RanGTP-Imp inh: inhibitors of RanGTP-importin-beta interaction, primary screen, biochemical, FRET, CFP-Ran, YFP-importin-beta, homogeneous. cell-free CFP-Ran/YFP-importin-beta FRET ratio. inhibition, % (concentration not given with the values). hit rate 1.1% among 300,000. AID 2216;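 active = most replicates above 15%; inconclusive = exactly half above 15%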;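 note: 0% = DMSO wells and 100% = Ran loaded with GDP instead of GTP; wells of about 40 µL received 100 nL stock; the first replicate is given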
Calb FLC: C. albicans growth modulation with fluconazole. growth inhibition, % (concentration not given with the values). hit rate 0.57% among 300,000. C. albicans CaCi-2 (fluconazole-resistant clinical isolate) + fluconazole, Alamar Blue growth, 48 h;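 active = most replicates above 75%; inconclusive = exactly half above 75%; inactive = most below 75%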;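 note: all wells also contain fluconazole at 8 µg/ml as a sub-toxic cotreatment; 0% = median of DMSO wells and 100% = median of geldanamycin control wells; wells of about 8 µL received 7.5 nL stock; the first replicate is given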
ALR inh: human ALR oxidase inhibition via reduced H2O2 | P55789 | purified ALR, DTT oxidation, H2O2 HRP-luminol luminescence | inhibition, % (concentration not given with the values) | hit rate 3.8% among 290,000 | AID 485317;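 active = mean and each replicate at 75% or more; inconclusive = only one of the two met; inactive = neither met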;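 note: stock transfer was 7.5 nL into about 7.5 µL; 0% = neutral wells and 100% = wells with inactivated enzyme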
* marks the source's active call; other numbers are inactive results; u = inconclusive; x = no result given; & = joins results of further samples.

The opening 13 entries, ahead of the listing:
SMILES	Beta2AR agonist	LANA-H2B inh	HNF4A DNA FP	Vif TR-FRET	RanGTP-Imp inh	Calb FLC	ALR inh
Brc1ccccc1Cn1c(-c2cscn2)nc2ccccc21	7	3.2	0.9	0%	1.0	38	-36
O=C(NCCCN1CCOCC1)c1cc(-c2ccco2)nc2ccccc12	-6	-0.8	-19	x	x	x	-8
C=CCN1C(=O)N(c2ccccc2)C(=O)C1CC(=O)Nc1ccc(OC)cc1 (configuration not stated)	3	1.7	-0.5	x	2.3	1	1
CC1(C)C(=O)Nc2ccccc2N1C(=O)COc1ccc(C#N)cc1	1	-1.8	-4.2	x	x	x	3
CCOCCCn1c(C)nc2c(c1=O)c1nc3ccccc3nc1n2-c1ccc(C)cc1	-27	3.3	-5.0	1%	u	22	-1
Cc1cccc2c(=O)c(C(=O)NCCc3ccccc3)c[nH]c12	-2	0.2	0.5	x	0.6	2	x
COc1ccc(C(C(=O)NCC2CCCO2)N(Cc2cccs2)C(=O)c2snc(C(N)=O)c2N)cc1 (configuration not stated)	15	7.0	1.5	x	-5.6	27	-10
CCOCCCn1c(SCC(=O)NC2CCCC2)nc2ccccc2c1=O	-8	5.3	-4.2	x	4.4	-6	-4
N#C/C(=C\c1cccs1)C(=O)NCC1CCCO1 (configuration not stated)	-2	1.9	-2.3	-5%	4.1	-28	15
Cc1c(S(=O)(=O)Nc2ccc(Oc3ccccc3)cc2)c(=O)n(C)c(=O)n1C	-20	1.0	3.4	x	-1.8	0	6
Cc1ccccc1NC(=O)COC(=O)c1ccc(S(=O)(=O)N2CCCCCC2)cc1	3	x	2.9	3%	x	x	x
CC#CC[N+](C)(C)CCCCCCCC	-5	1.6	0.1	1%	0.5	-22	0
CCC(=O)N1CCc2cc(S(=O)(=O)CCC(=O)N3CCN(c4ccc(C(C)=O)cc4)CC3)ccc21	-4	2.1	2.4	x	-2.0	u	x

The list itself, from the start:
SMILES	Beta2AR agonist	LANA-H2B inh	HNF4A DNA FP	Vif TR-FRET	RanGTP-Imp inh	Calb FLC	ALR inh
Brc1ccccc1Cn1c(-c2cscn2)nc2ccccc21	7	3.2	0.9	0%	1.0	38	-36
O=C(NCCCN1CCOCC1)c1cc(-c2ccco2)nc2ccccc12	-6	-0.8	-19	x	x	x	-8
C=CCN1C(=O)N(c2ccccc2)C(=O)C1CC(=O)Nc1ccc(OC)cc1 (configuration not stated)	3	1.7	-0.5	x	2.3	1	1
CC1(C)C(=O)Nc2ccccc2N1C(=O)COc1ccc(C#N)cc1	1	-1.8	-4.2	x	x	x	3
CCOCCCn1c(C)nc2c(c1=O)c1nc3ccccc3nc1n2-c1ccc(C)cc1	-27	3.3	-5.0	1%	u	22	-1
Cc1cccc2c(=O)c(C(=O)NCCc3ccccc3)c[nH]c12	-2	0.2	0.5	x	0.6	2	x
COc1ccc(C(C(=O)NCC2CCCO2)N(Cc2cccs2)C(=O)c2snc(C(N)=O)c2N)cc1 (configuration not stated)	15	7.0	1.5	x	-5.6	27	-10
CCOCCCn1c(SCC(=O)NC2CCCC2)nc2ccccc2c1=O	-8	5.3	-4.2	x	4.4	-6	-4
N#C/C(=C\c1cccs1)C(=O)NCC1CCCO1 (configuration not stated)	-2	1.9	-2.3	-5%	4.1	-28	15
Cc1c(S(=O)(=O)Nc2ccc(Oc3ccccc3)cc2)c(=O)n(C)c(=O)n1C	-20	1.0	3.4	x	-1.8	0	6
Cc1ccccc1NC(=O)COC(=O)c1ccc(S(=O)(=O)N2CCCCCC2)cc1	3	x	2.9	3%	x	x	x
CC#CC[N+](C)(C)CCCCCCCC	-5	1.6	0.1	1%	0.5	-22	0
CCC(=O)N1CCc2cc(S(=O)(=O)CCC(=O)N3CCN(c4ccc(C(C)=O)cc4)CC3)ccc21	-4	2.1	2.4	x	-2.0	u	x
CC1CCc2c(nc3nc[nH]n3c2=O)C1 (configuration not stated)	0	4.5	-1.4	2%	0.5	2	5
CNC(=O)C1Cc2ccccc2CN1S(=O)(=O)c1ccc(OC)c(OC)c1 (configuration not stated)	-3	-0.9	2.5	-4%	-6.2	0	-31
O=S(=O)(Nc1cccc2[nH]ncc12)c1cccs1	-9	11	0.3	1%	-0.9	3	2
COc1ccc(C(=O)C2CCN(C(=O)c3ccc(F)cc3)CC2)cc1	-4	0.0	-5.3	x	8.4	1	x
N#Cc1cc(-c2ccccc2)nnc1Oc1ccccc1	20	-0.7	1.2	10%	2.2	-4	-1
NC(=O)C1(N2CCCCC2)CCN(C(=S)Nc2ccc(F)c(Cl)c2)CC1	3	2.8	-3.4	-11%	0.2	-18	21
CCCCC(SCC(=O)Nc1ccccc1)C(=O)O (configuration not stated)	3	-0.4	0.2	9%	-4.1	-5	-42
NNC(=O)c1ccc(COc2cccc3ccccc23)cc1	-5	0.0	3.4	0%	0.3	10	1
CCC(C(=O)NCCC(C)C)n1ccc2cc(S(=O)(=O)N3CCCCC3)ccc21 (configuration not stated)	1	1.8	1.3	x	2.2	-1	-4
CNc1ccc([N+](=O)[O-])cc1C(=O)O	-3	-2.1	0.4	x	-4.3	-5	-1
O=C1N=C(N2CCCCC2)S/C1=C\c1ccccc1F	14	-0.1	-3.0	15%	0.1	-2	2
O=C(O)c1ccccc1OCCN1CCCC1=O	1	-5.0	1.0	x	3.4	0	4
CNC(=S)NC12CC3CC(CC(C3)C1)C2	-8	14	1.0	x	3.9	-5	x
COc1ccc(CN2C(=O)NC3(CCCC3)C2=O)cc1F	-4	-1.5	-4.1	-3%	1.3	3	-22
Cc1cc(NC(=O)CN2C(=O)NC(C)(c3ccc(Cl)cc3)C2=O)no1 (configuration not stated)	2	1.2	13	-1%	-0.5	22	-9
O=C(CN1C(=O)/C(=C2\SC(=S)N(C3CCS(=O)(=O)C3)C2=O)c2ccccc21)Nc1ccccc1 (configuration not stated)	12	4.7	-1.3	4%	x	x	-2
CNC[C@@H]1Oc2c(NC(=O)Nc3ccccc3)cccc2C(=O)N([C@@H](C)CO)C[C@H]1C	1	-2.1	-3.6	x	x	x	3
COc1ccc(CCNC(=O)CCN2C(=O)COc3ccc(C)cc32)cc1OC	5	0.7	3.5	0%	-5.2	-4	-16
O=C(O)C1Cc2ccccc2CN1C(=O)c1ccccc1Cl (configuration not stated)	6	5.6	-2.2	27%	0.7	x	3
COc1cc(C)ccc1OCCOc1c(C)cc(Cl)cc1Cl	-3	0.9	-1.8	15%	-1.4	7	41
COC(=O)C1=NN(C(=O)c2ccc(Br)cc2)C(O)(C(C)(C)C)C1 (configuration not stated)	5	x	0.5	5%	x	x	x
CCOc1ccccc1NC(=O)CN(c1ccc(OC)cc1OC)S(=O)(=O)c1ccccc1[N+](=O)[O-]	-12	2.3	1.6	-3%	-5.2	20	-2
O=C(O)c1cccc(S(=O)(=O)Nc2ccc(O)cc2Sc2nc3ccccc3s2)c1	5	8.5	-2.8	x	-2.9	2	99*
Cn1cc(CNC(=O)c2ccc3nc(Cc4ccccc4F)oc3c2)cn1	-8	0.4	0.2	x	-3.7	-2	1
Oc1c(Br)cc(Br)cc1CNc1cnc2ccccc2c1	1	6.7	-2.5	9%	-3.1	10	-29
COc1cc(C2C(C(=O)c3cccs3)=C(O)C(=O)N2c2cc(C)on2)ccc1O (configuration not stated)	4	2.3	-3.6	6%	0.3	2	20
CC(C)(C)Nc1nc(N)nc(Cl)n1	3	1.9	1.9	x	-0.4	1	1
Cc1c(C(=O)O)sc2ncnc(N3CCCCC3C)c12 (configuration not stated)	-4	0.1	0.1	11%	0.6	-2	1
O=C(NNC(=O)C1CCN(S(=O)(=O)c2ccc(Cl)cc2)CC1)c1ccc(Cl)cc1	-9	2.7	-3.1	0%	-5.7	6	-2
CCc1nc(CNC(=O)C2CCC(=O)N(CCc3ccc(OC)cc3)C2)cs1 (configuration not stated)	1	0.9	0.0	-10%	4.0	-13	-4
C=CCNC(=O)c1cc(Cl)ccc1[N+](=O)[O-]	-6	0.1	-3.0	-4%	6.0	4	-8
CCCCOC(=O)Cn1c(=O)oc2ccc(C)cc21	16	-5.7	-0.5	2%	1.3	1	-22
CCOc1ccc(C(=O)O)cn1	-5	2.0	2.5	-2%	-0.8	8	-28
Cc1ccc(C)c(NC2=NS(=O)(=O)c3ccccc32)c1	-7	0.0	0.7	u	6.7	32	0
COC(=O)c1ccc(-n2cncn2)c(F)c1	-1	4.7	3.1	1%	-5.5	-10	-1
COc1ccc(C(c2sc3nc(C)nn3c2O)N2CCC3(CC2)OCCO3)cc1 (configuration not stated)	2	-1.1	-0.3	1%	-0.6	0	-4
COc1ccc(NC(=O)c2cc3c(COC(C)=O)cnc(C)c3oc2=Nc2cccc(C(=O)O)c2)c(OC)c1	8	0.2	-9.5	10%	-0.6	-2	-4
(more compounds)
SMILES	Beta2AR agonist	LANA-H2B inh	HNF4A DNA FP	Vif TR-FRET	RanGTP-Imp inh	Calb FLC	ALR inh
COc1ccc(-c2nnn(CC(=O)N(CC(=O)NCCC(C)C)c3ccccc3)n2)cc1OC	8	-13	2.5	7%&-12%	-2.9	-10	-3
O=C(O)c1cc2nc(-c3ccccc3)cc(-c3ccccc3)n2n1	-4	-1.2	-3.1	-12%	-0.7	2	15
COc1ccc(S(=O)(=O)N2CCC(C)CC2)cc1Br	1	-2.3	2.2	-3%	0.3	5	-5
COc1ccccc1NS(=O)(=O)c1cc(NC(=O)CNC(=O)c2cc(C)cc(C)c2)ccc1C	1	0.8	1.1	-2%	1.3	23	29
Cc1ccc(NC(=O)NCc2ccccn2)cc1Cl	10	-2.6	-3.4	-6%	-3.2	3	5
C/C(=N\NC(=O)CN1CCCCC1)c1ccccc1O	-6	0.7	1.3	-8%	0.7	-5	x
CCOc1ccc(NC(=O)CCN2C(=O)c3cccc([N+](=O)[O-])c3C2=O)cc1	-1	1.1	5.1	2%	-0.9	0	-10
O=C1c2cccnc2C(O)N1Cc1ccc(F)cc1 (configuration not stated)	6	-6.8	1.5	8%	-2.8	-2	0
CC1CCCN(C(=O)c2cc3c(=O)n4ccccc4nc3s2)C1 (configuration not stated)	-12	-1.1	4.4	x	-1.3	-3	x
C=CCNC(=S)N1CCN(CCNC2=CC(=O)CC(C)(C)C2)CC1	-4	-4.0	-3.8	-4%	3.7	-3	-11
COc1ccccc1NC(=O)Cn1cnc2c(nnn2-c2ccc(C)cc2)c1=O	-5	0.7	2.8	-5%	-2.8	12	-5
O=C(Cc1ccccc1)Nc1ccc(-c2nnc(-c3ccco3)o2)cc1	-9	-1.1	-3.9	19%	2.3	-52	x
O=C(CCN1C(=O)/C(=C/c2ccc(F)cc2)SC1=S)N[C@@H](CO)Cc1ccccc1	-11	1.4	-4.9	-3%	0.6	x	-1
c1ccc(-c2nccc(-c3ccc4c(c3)OCO4)n2)cc1	2	0.8	2.3	-4%	2.0	-25	-2
CCCN1C2CCCC1CC(NC(=O)c1cccc([N+](=O)[O-])c1)C2 (configuration not stated)	-7	-2.7	-5.8	3%	u	x	-48

Source: PubChem BioAssay
